YopH PTP inh – YopH tyrosine phosphatase inhibitors, primary screen, biochemical, fluorescence Ex485/Em525 | 140,000 compounds, 0.16% hits | inhibition, %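 (about 10 µM by stock and volumes)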 | YopH tyrosine phosphatase [Yersinia enterocolitica] | AID 898, 2007;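 active = inhibition of 50% or more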;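 note: controls were vehicle for no effect and minimum signal wells for full effect; inactives centre near -20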
Arbovirus anti – antivirals against arbovirus infection, primary screen, cell-based, full library, 10K replicate subset; arbovirus infection cell-based antiviral screen; inhibition, % at 10 µM; 200,000 compounds, 0.37% hits; AID 1251, 2008;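 active = inhibition from about 30%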;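 note: bluetongue infection of BSR cells; cell survival read as ATP light after 72 h; 0% = infected wells without compound and 100% = uninfected wells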
Mtb H37Rv – M. tuberculosis H37Rv growth inhibitors, H37Rv strain (AID 1626) | M. tuberculosis H37Rv growth inhibition; higher % means a stronger effect | one-dose inhibition, % at 10 µM; IC50 in µM for titrated hits | 220,000 compounds, 0.95% hits;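 active = confirmed in a dose series; inconclusive = inhibition above 80% but not taken into the dose series; inactive = below 80% or under 30% at every dose of the series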;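 note: bacteria incubated seven days before Alamar blue readout; 0% = bacteria only wells and 100% = bacteria with antibiotic wells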
Mtb betalactam – beta-lactam sensitization of Mtb H37Rv, H37Rv. M. tuberculosis H37Rv growth with meropenem, percent inhibition; hits of this screen are not shown here. inhibition, % at 25 µM. 330,000 compounds, 0.27% hits. AID 434955, 2010;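 active = about 74% or more and at least 40 points above the plate without the antibiotic, then above 30% in a dose series; inconclusive = first-round hits that could not be retested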;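 note: growth measured after seven days incubation then overnight dye step; 0% = bacteria only wells and 100% = bacteria with antibiotic; twin plates without the antibiotic show which effects depend on it; some results filed as inactive read as strong as hits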
RecA splice inh – Mtb RecA intein splicing inhibitors, primary screen, biochemical, fluorescence, HTS. Protein RecA (Mycobacterium tuberculosis (strain ATCC 25618 / H37Rv)), P9WHJ3. cell-free RecA intein splicing. inhibition, %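 (about 9 µM by stock and volumes)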. 290,000 compounds, 0.75% hits. AID 2221, 2009; in the data active = inhibition above about 30%; inconclusive = no clear call, values can overlap the other calls;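 note: 0% = vehicle wells and 100% = reference inhibitor control wells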
Target sequence (P9WHJ3 whole entry, looked up, canonical isoform): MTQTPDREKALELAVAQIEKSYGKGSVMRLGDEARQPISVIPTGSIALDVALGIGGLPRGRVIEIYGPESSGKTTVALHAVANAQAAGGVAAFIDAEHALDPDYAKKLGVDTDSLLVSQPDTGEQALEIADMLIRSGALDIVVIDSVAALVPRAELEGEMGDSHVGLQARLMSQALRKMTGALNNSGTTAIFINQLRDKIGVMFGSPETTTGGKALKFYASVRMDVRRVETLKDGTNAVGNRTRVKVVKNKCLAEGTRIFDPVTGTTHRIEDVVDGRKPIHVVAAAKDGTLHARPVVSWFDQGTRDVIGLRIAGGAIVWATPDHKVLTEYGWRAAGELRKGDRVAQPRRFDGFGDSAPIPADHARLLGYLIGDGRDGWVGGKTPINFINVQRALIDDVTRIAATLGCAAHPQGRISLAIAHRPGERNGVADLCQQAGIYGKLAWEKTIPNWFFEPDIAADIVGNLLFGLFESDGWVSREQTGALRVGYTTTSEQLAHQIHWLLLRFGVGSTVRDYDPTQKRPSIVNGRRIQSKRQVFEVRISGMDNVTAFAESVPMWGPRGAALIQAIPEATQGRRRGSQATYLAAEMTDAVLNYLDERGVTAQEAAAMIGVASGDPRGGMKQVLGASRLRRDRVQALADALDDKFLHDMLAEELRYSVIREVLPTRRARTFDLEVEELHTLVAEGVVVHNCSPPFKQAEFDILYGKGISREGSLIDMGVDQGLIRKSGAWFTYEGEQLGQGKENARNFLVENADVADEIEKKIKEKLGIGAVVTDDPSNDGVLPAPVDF
Arbovirus anti repeat – recorded beside Arbovirus anti, whose call it bears; inhibition, %; measured here: 10K subset replicate screen; many hits read low in the repeat;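 first of two repeat runs on a subset; 0% = infected and 100% = uninfected wells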
* hit, by the source's call; ? = inconclusive; · = not tested or not shown. An excerpt; rates above refer to the full screens.

SMILES	YopH PTP inh	Arbovirus anti	Mtb H37Rv	Mtb betalactam	RecA splice inh	others
CCN(Cc1ccncc1)Cc1cn[nH]c1-c1ccc(OC)cc1F	·	8	-1%	7	2.0
C/C(CC(=O)NC12CC3CC(CC(C3)C1)C2)=N\NC(=O)c1ccc(F)cc1	·	·	·	-6	-1.1
O=c1c2ccccc2sn1-c1ccc(S(=O)(=O)N2CCCCC2)cc1	30	·	4%	12	1.7
CCN1CCCC1CNC(=O)c1cc(S(N)(=O)=O)ccc1OC (configuration not stated)	·	·	-7%	2	2.8
O=C(NC1CCCc2ccccc21)C1CCC(CNc2c(N3CCOCC3)c(=O)c2=O)CC1 (configuration not stated)	-17	0	3%	-6	·	Arbovirus anti repeat=-1
CCOc1ccc(CNc2ncnc(N)n2)cc1	6	4	-1%	-5	-0.6
CCN(C(=O)CN1C(=O)/C(=C/c2ccccc2F)SC1=S)C1CCS(=O)(=O)C1 (configuration not stated)	·	·	·	2	-3.8
O=C(CNC(=O)C1COc2ccccc2O1)N/N=C/c1ccc(O)cc1O (configuration not stated)	-10	-17	5%	0	0.1
Cc1cc(Br)cc(C)c1NC(=O)c1ccc(C#N)cc1F	·	2	1%	65	-4.4
NC(=O)c1ccsc1NC(=O)c1ccc(S(=O)(=O)N2CCCC2)cc1	·	10	6%	0	-3.1
COc1cccc(Nc2nnc(SCC(=O)Nc3sccc3C(N)=O)s2)c1	·	1	-6%	-1	1.4
COc1ccccc1CN1CCc2c([nH]c3ccccc23)C1	·	·	·	-7	-2.5
CC(=O)N1CCN(c2ccc(Nc3nc(C)nc4c3oc3ccccc34)cc2)CC1	·	·	-4%	-7	-1.9
Cc1ccc(S(=O)(=O)N2CCOCC2)cc1NC(=O)CSc1nccn1C	-29	-2	-10%	-2	2.9
O=C(OCC(=O)N1CCN(C(=O)c2ccco2)CC1)c1sc2cc(F)ccc2c1Cl	-44	6	31%	16	·
Cc1ccc(S(=O)(=O)Cc2c(C)noc2C)cc1	-16	-2	-1%	-10	-0.3
N[C@@H](Cn1oc(=O)[nH]c1=O)C(=O)O	·	·	-10%	6	1.4
CN1N=C(C(=O)N2CCN(c3ccc([N+](=O)[O-])cc3)CC2)CCC1=O	6	-1	6%	4	3.5
Cc1cc(OCC(=O)Nc2nnc(C3CC3)s2)ccc1[N+](=O)[O-]	·	-16	-5%	-22	-2.7
CCc1nc2ccccc2n1Cc1ccccc1F	·	-3	4%	4	1.7
COc1ccc(CCNC(=O)c2sc3ccccc3c2Cl)cc1OC	-25	0	8%	1	-1.1
CC(C)c1ccc(S(=O)(=O)c2n[nH]n3c2nc(=O)c2ccccc23)cc1	29	19	-9%	20	-7.5
Cc1cccc(-c2cc3nc(-c4ccccc4)cc(N4CCC5(CC4)OCCO5)n3n2)c1	0	-6	72%	47	-7.5
CCCOc1ccc(/C=N/NC(=O)c2nnn(-c3nonc3N)c2-c2cccs2)cc1OC	·	·	·	1	0.8

Overlap with the part before: 3 entries, then new ones.
SMILES	YopH PTP inh	Arbovirus anti	Mtb H37Rv	Mtb betalactam	RecA splice inh	others
CC(C)c1ccc(S(=O)(=O)c2n[nH]n3c2nc(=O)c2ccccc23)cc1	29	19	-9%	20	-7.5
Cc1cccc(-c2cc3nc(-c4ccccc4)cc(N4CCC5(CC4)OCCO5)n3n2)c1	0	-6	72%	47	-7.5
CCCOc1ccc(/C=N/NC(=O)c2nnn(-c3nonc3N)c2-c2cccs2)cc1OC	·	·	·	1	0.8
Cc1cc(NS(=O)(=O)c2ccc(CC(C)C)cc2)no1	-29	3	-1%	-9	2.0
O=C1N=C(N2CCCCC2)SC1=C1CCCC1	1	-2	0%	-3	-0.5
O=C(NCC1(N2CCCCC2)CCCCC1)c1ccc(NS(=O)(=O)c2ccc(F)cc2)cc1	·	·	·	-7	1.3
COc1ccc(CN(C)C(=O)c2ccc(NS(=O)(=O)c3ccc(F)cc3)cc2)c(OC)c1OC	·	·	·	-7	0.3
FC(F)(F)c1cccc(N2CCN(C(=S)NC3CCCCC3)CC2)c1	-21	-5	10%	1	5.1
COc1cccc(-c2c[nH]c(=O)[nH]c2=O)c1	·	1	2%	2	2.0
CCOC(=O)c1c(-c2ccccc2)oc2ccc(OC)cc12	7	8	11%	80	4.2
Cc1ccc(C(CNC(=O)Nc2ccccc2)N2CCN(C)CC2)cc1 (configuration not stated)	·	·	·	-3	-1.6
Cc1c(CCC(=O)O)c(=O)n2c([nH]c3ccccc32)c1C#N	-36	8	-32%	3	-8.6
CCCCCOc1ccc(N2C(=O)C3C4C=CC(C3C2=O)N(C)C4=O)cc1 (configuration not stated)	4	-3	?	94	5.4
Cc1cccc(C)c1NC(=O)CCCSc1nnc(-c2ccc(Cl)cc2)n1-c1ccccc1	-30	18	11%	-4	0.8
COc1ccc(CNc2ncc(-c3ccccc3)n2C)c(OC)c1OC	·	·	·	-11	0.8

Pulled one by one from the entries so far:
SMILES	YopH PTP inh	Arbovirus anti	Mtb H37Rv	Mtb betalactam	RecA splice inh	others
Cc1ccc(C(CNC(=O)Nc2ccccc2)N2CCN(C)CC2)cc1 (configuration not stated)	·	·	·	-3	-1.6
O=C(NCC1(N2CCCCC2)CCCCC1)c1ccc(NS(=O)(=O)c2ccc(F)cc2)cc1	·	·	·	-7	1.3
CCCCCOc1ccc(N2C(=O)C3C4C=CC(C3C2=O)N(C)C4=O)cc1 (configuration not stated)	4	-3	?	94	5.4

More results:
SMILES	YopH PTP inh	Arbovirus anti	Mtb H37Rv	Mtb betalactam	RecA splice inh	others
CCC(NS(=O)(=O)c1cn(C)nc1C)c1ccccc1 (configuration not stated)	·	8	5%	-10	-0.8
O=C(CSc1nc2ccccc2o1)N1c2ccccc2Sc2ccccc21	17	-3	14%	5	11
COc1cc(NS(=O)(=O)c2ccc(F)cc2)c(C(=O)O)cc1OC	-36	-6	-3%	10	-2.6
CC(=O)Nc1ccc(NC(=O)CN(c2ccc([N+](=O)[O-])cc2)S(=O)(=O)c2ccccc2)cc1	·	-1	0%	0	2.1
Cc1ccc(NC(=O)CN(C)C(=O)CSc2ncc(C(F)(F)F)cc2Cl)cc1	-11	-1	-4%	1	-0.5
Cc1ccc(NC(=O)Cc2ncc(C(F)(F)F)cc2Cl)cc1Cl	-41	5	-4%	2	2.2
CCOC(=O)c1cc(-c2ccco2)nn1-c1ccc(C)cc1	·	-4	0%	1	5.9
O=C(CNC(=O)OCc1ccccc1)NC1CCCCCCC1	-24	9	-2%	-6	0.1
O=C(NC1CCCCC1)C1Cc2ccccc2CN1S(=O)(=O)c1ccc(F)cc1 (configuration not stated)	-18	-2	0%	2	3.5
O=C(O)c1cc(OCc2ccccc2)cc(OCc2ccccc2)c1	·	·	·	9	-2.5
COC(=O)c1ccccc1NC(=O)c1cnn2cccnc12	·	-4	2%	1	-0.8
CCOC(=O)/C=C1\SCC(=O)N1CC(=O)NC12CC3CC(CC(C3)C1)C2	-21	1	7%	1	-3.7

Ordered by SMILES length (smallest number first): part of the list above.
SMILES	YopH PTP inh	Arbovirus anti	Mtb H37Rv	Mtb betalactam	RecA splice inh	others
COc1cc(NS(=O)(=O)c2ccc(F)cc2)c(C(=O)O)cc1OC	-36	-6	-3%	10	-2.6
CCCCCOc1ccc(N2C(=O)C3C4C=CC(C3C2=O)N(C)C4=O)cc1 (configuration not stated)	4	-3	?	94	5.4
Cc1ccc(NC(=O)CN(C)C(=O)CSc2ncc(C(F)(F)F)cc2Cl)cc1	-11	-1	-4%	1	-0.5

More structures:
SMILES	YopH PTP inh	Arbovirus anti	Mtb H37Rv	Mtb betalactam	RecA splice inh	others
CCCOC(=O)CSc1nnc(-c2cc(OC)c(OC)c(OC)c2)o1	-59	-4	0.73µM*	99	-0.5
CN1CCCN(C(=O)CC2(CC(=O)O)CCCC2)CC1	·	18	-6%	-2	1.3
Cc1ccc(CNC(=O)COc2ccccc2-c2ccccc2)cc1	-29	-3	8%	31	6.9
Cc1ccc(C(=O)N2CCCC(CCC(=O)N3CCN(c4ccccn4)CC3)C2)s1 (configuration not stated)	·	2	-1%	0	0.8
CN(C)c1ccc(C(=S)N2CCN(C(=S)Nc3cccc4ccccc34)CC2)cc1	·	-9	6%	-7	1.1
COc1ccc(C(=O)CNc2ccccc2C#N)cc1	·	3	4%	-3	3.5
COC(=O)c1ccc(OCC2c3cc(OC)c(OC)cc3CCN2C(=O)c2ccco2)cc1 (configuration not stated)	-48	19	9%	45	6.3
CNC[C@@H](C)NC[C@@H](Cc1ccccc1)NCCc1ccccc1	·	·	·	-13	0.8
COc1cc(NC(=O)COc2ccccc2)c(OC)cc1NC(C)=O	·	-1	5%	5	-0.3
CN(C)c1ccc(/C=N/Nc2cccc(C(=O)O)c2)cc1	·	·	·	5	-4.9
COC(=O)C1=C(C)N(Cc2ccco2)C(=O)N[C@@H]1c1ccccc1	-26	-3	-12%	3	2.4
CCn1c(SCc2nc(N)nc(N3CCCCC3)n2)nc2c1c(=O)n(C)c(=O)n2C	-23	6	1%	0	-7.1
COc1ccc(C(CNC(=O)c2cc3ccccc3o2)N2CCCCC2)cc1 (configuration not stated)	·	1	10%	-1	8.7
CCOc1ccc(N2CC(C(=O)Nc3ccc4c(c3)OCCO4)CC2=O)cc1 (configuration not stated)	·	·	·	12	3.3
Cc1cnc(NC(=O)CCNC(=O)c2ccc([N+](=O)[O-])cc2)s1	·	1	-7%	3	-1.2
CN(C)CCCNC(=O)C(=O)Nc1cc2c3c(c1)CC(=O)N3CCC2	·	·	·	3	1.0
COC(=O)N/N=C/c1cn(CCOc2ccccc2OC)c2ccccc12	·	·	·	2	1.9
CC(OCc1ccccc1)C(NC(=O)OC(C)(C)C)C(=O)NCC1CCCO1 (configuration not stated)	0	-3	-8%	-20	1.7
Cc1ccc(NC(=O)C2COc3ccccc3O2)nc1 (configuration not stated)	-28	-4	4%	4	1.4
O=C(Cc1ccc(Cl)cc1)Nc1ccc(S(=O)(=O)Nc2cnc3ccccc3n2)cc1	·	11	-4%	9	3.5
O=C(O)C1C2C=CC(C2)C1C(=O)NCc1ccc(Cl)cc1Cl (configuration not stated)	·	·	·	1	-0.3
COc1ccc(CC(=O)NNC(=S)Nc2ccc(Br)cc2)cc1	0	4	1%	-7	0.9
COc1cc(C(=O)NCc2nnc(SCC(=O)NCc3ccccc3)o2)cc(OC)c1OC	-21	4	-6%	-7	0.5
CSc1nnc(-c2ccc(NC(N)=S)cc2)o1	·	·	3%	·	0.2
Cc1ccc(S(=O)(=O)N(C)c2ccc(C(=O)N3CCOCC3)cc2)cc1	·	·	·	-3	1.2

High-throughput results from PubChem BioAssay.
